Screens from PubChem.
TRPV1 PAM: HTS Assay for Compounds that Act as Potentiators of the Vanilloid Receptor 1. Transient receptor potential cation channel subfamily V member 1 (Homo sapiens), Q8NER1. TRPV1-expressing cells, Fluo-8 calcium influx, capsaicin EC20 potentiation; host cell line not named in the record; control for the full effect not named in the record. potentiation, % at 8.33 µM. 320,000 compounds, 0.02% hits; active means potentiation above 80%; inconclusive means 30% to 80%; inactive means below 30%; further: 0% is about no effect
Target sequence (Q8NER1 whole entry, looked up): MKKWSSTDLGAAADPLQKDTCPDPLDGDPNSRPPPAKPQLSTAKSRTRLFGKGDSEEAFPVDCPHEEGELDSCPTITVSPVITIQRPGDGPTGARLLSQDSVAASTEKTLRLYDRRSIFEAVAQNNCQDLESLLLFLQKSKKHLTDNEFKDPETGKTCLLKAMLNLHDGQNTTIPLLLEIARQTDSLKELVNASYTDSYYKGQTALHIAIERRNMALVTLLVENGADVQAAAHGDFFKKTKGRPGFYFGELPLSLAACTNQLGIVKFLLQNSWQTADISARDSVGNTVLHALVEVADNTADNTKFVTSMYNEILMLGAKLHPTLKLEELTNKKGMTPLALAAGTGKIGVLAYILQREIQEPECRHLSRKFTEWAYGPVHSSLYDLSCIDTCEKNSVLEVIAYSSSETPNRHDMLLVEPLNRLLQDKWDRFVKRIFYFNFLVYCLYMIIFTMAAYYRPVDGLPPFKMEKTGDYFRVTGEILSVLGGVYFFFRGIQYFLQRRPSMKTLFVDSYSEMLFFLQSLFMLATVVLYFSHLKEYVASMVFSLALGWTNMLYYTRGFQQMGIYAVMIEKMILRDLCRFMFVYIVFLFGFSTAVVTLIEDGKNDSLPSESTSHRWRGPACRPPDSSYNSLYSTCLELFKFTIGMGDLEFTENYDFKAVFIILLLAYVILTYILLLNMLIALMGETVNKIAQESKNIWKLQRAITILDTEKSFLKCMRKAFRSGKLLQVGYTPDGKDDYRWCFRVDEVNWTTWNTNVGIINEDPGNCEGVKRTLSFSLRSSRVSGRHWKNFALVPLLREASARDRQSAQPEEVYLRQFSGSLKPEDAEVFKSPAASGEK
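Cells expressing TRPV1 were dye-loaded with Fluo-8 and read kinetically: 10 s baseline, 3 min after compound (agonist portion), then 2 min after EC20 capsaicin (allosteric enhancer portion). Calcium-bound dye fluorescence at 480/520 nm.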
ClpP mod: qHTS Assay for Activators of ClpP; ATP-dependent Clp protease proteolytic subunit (Bacillus subtilis (strain 168)), P80244; 340,000 compounds, 1.9% hits; AID 651965, 2013; purified B. subtilis ClpP, FRET peptide cleavage, 20 min; Potency, µM (top dose mostly 57.5 µM), without a hit: at the highest dose activity change, negative = active; active = well fitted falling curve with a large enough effect; inconclusive = small, poorly fitted or top-dose-only effect; inactive = no such curve, though single readings can be large or run the other way; further: potency means the concentration at half of the fitted maximal effect; the source files actives as falling curves though it sought activators and does not explain the sign; nearly all actives have a fitted effect of over 65% in size; many hits overshoot -100%
Target sequence (P80244 whole entry, looked up): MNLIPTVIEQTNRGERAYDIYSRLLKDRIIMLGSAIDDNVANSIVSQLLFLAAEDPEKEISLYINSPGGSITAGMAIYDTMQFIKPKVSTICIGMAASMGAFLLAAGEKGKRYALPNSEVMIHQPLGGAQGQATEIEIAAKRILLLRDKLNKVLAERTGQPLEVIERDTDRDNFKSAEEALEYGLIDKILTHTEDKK
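Buffer: 100 mM Tris/HCl pH8, 100 mM KCl, 0.05% low protease BSA, 2.5% glycerol, 0.01% Tween-20. ClpP 10 microg/mL final; 20 min RT; delta FRET normalized to ADEP and DMSO controls.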
gsp antagonist: qHTS for Antagonists of gsp, the Etiologic Mutation Responsible for Fibrous Dysplasia/McCune-Albright Syndrome: qHTS; gsp-mutant cells, cAMP HTRF, 30 min; control for the full effect not named in the record; 340,000 compounds, 0.4% hits; Potency, µM (series often up to 76.9 µM), for the others: top-dose activity change, negative = inhibition, actives largely listed as inhibitors; active = falling curve of any shape with a large fitted effect; inconclusive = falling curve, mostly with a smaller effect; inactive = flat or rising curve; cell line not stated here;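 further: intracellular cAMP measured with PDE inhibitor Ro 20-1724 present during compound exposure; potency means the concentration at half of the fitted maximal effect; on the % scale 0 is the no-effect control and ±100 the full control effect; nearly all actives have a fitted effect of over 65% in size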
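G418-selected cells were plated in DMEM/10% FBS for 16-24 h at 37C, then treated with compounds plus the PDE inhibitor […] (300 uM solution added) for 30 min at 37C. Intracellular cAMP was measured by HTRF after 30 min lysis at room temperature.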
TRPML1 inh: qHTS for Inhibitors of the Human Mucolipin Transient Receptor Potential 1 (TRPML1); TRPML1-inducible cells, Ca2+ dye fluorescence, FDSS; stronger effect = lower value; inhibition of EC80 agonist-evoked calcium signal; 390,000 compounds, 0.02% hits; activity change, negative = inhibition, % (concentration not given with the values); AID 624415, 2012; Mucolipin-1 (Homo sapiens), Q9GZU1; in the data active means activity change below about -50%; inconclusive means about -30% to -50%; inactive means above about -30%;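 further: stimulus is agonist 54-4 at its EC80 concentration; on the % scale 0 is the no-effect control and ±100 the full control effect; the text of the record puts the active cut at -80%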
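TRPML1-DL cells, Tet-induced overnight (~16 h, 37 °C) at 1,500 cells/well, were loaded with Ca8 no-wash dye plus quencher for 45-90 min at room temperature. Compounds were pinned during FDSS kinetic reading; agonist 54-4 at EC80 (4 uM final) then added.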
Sfp inh: qHTS Assay for Inhibitors of Bacillus subtilis Sfp phosphopantetheinyl transferase (PPTase) | 4'-phosphopantetheinyl transferase ffp (Bacillus subtilis), Q9F4F7 | Biochemical Sfp PPTase activity, qHTS | Potency, µM, for the others: max response, negative = inhibition, actives largely listed as inhibitors | 310,000 compounds, 3.5% hits | AID 1490, 2009; active means well fitted inhibition curve with a large enough effect; inconclusive means small, poorly fitted or top-dose-only effect, or another doubt; inactive means no such curve, though single readings can be large or run the other way;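 further: the enzyme is Sfp with the accession as filed and its product quenches rhodamine fluorescence; potency means the concentration at half of the fitted maximal effect; 0% = enzyme reaction without inhibitor and -100% = no enzyme wells; top concentration of the series not given in the record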
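Step 1, compound plus 15 nM Sfp-PPTase, 15 min, room temperature. Step 2, add rhodamine-CoA (5 uM) and BHQ-2-YbbR (12.5 uM). Step 3, read 525/598 nm fluorescence at 0 and 30 min.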
Menin MLL FP FL: qHTS Assay for Inhibitors Targeting the Menin-MLL Interaction in MLL Related Leukemias: Competition With Fluorescein Labeled MLL-derived Peptide. Fluorescence polarization, fluorescein-MLL peptide displacement from menin. FP activity change, % at 61.4 µM. 290,000 tested, under 10 active. AID 1766, 2009; inconclusive = falling polarisation curve, or a change in total fluorescence; inactive = total fluorescence flat and polarisation flat or rising; no compound was filed as active; the % refers to the polarisation; negative = inhibition;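 further: % of control where 0% means no effect; inhibitors lower the polarisation; unlabelled MLL peptide was the positive control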
gsp agonist: qHTS for Agonist of gsp, the Etiologic Mutation Responsible for Fibrous Dysplasia/McCune-Albright Syndrome: qHTS | AID 624287, 2012 | gsp mutant cells, cAMP HTRF, 30 min; control for the full effect not named in the record | 340,000 compounds, 0.13% hits | Potency, µM (highest dose often 76.9 µM), without a hit: at the highest dose activation (cAMP increase), most hits filed as activators; active = well fitted activation curve with a large enough effect; inconclusive = small, poorly fitted or top-dose-only effect, or another doubt; inactive = no such curve, though single readings can be large or run the other way; cell line not stated here;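 further: phosphodiesterase inhibitor Ro 20-1724 added with compounds to block cAMP breakdown; potency means the concentration at half of the fitted maximal effect; nearly all actives have a fitted effect of over 60% in size; about a fifth of the inactives were tested at one dose only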
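Cells in DMEM/10% FBS with G418 were pretreated with compounds in DMSO plus […] (300 uM stock) for 30 min at 37C. cAMP was measured by HTRF (cAMP-d2 plus anti-cAMP antibody-K) after 30 min at room temperature.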
Starred values were filed as active, the others as inactive; ? = inconclusive; . = not tested or not shown; & = joins results of further samples; ! = repeats disagree; [ ] = dose if it differs, or a comment. Compounds as they come. Share with any hit: about 4.9%.

SMILES	TRPV1 PAM	ClpP mod	gsp antagonist	TRPML1 inh	Sfp inh	Menin MLL FP FL	gsp agonist
OCCN(CCO)c1ccc(C(c2ccc(Cl)cc2)c2ccc(N(CCO)CCO)cc2Cl)c(Cl)c1	24	0.4%	5%	7	19%	-0.4	-18%
CCOC(=O)[C@@H]1[C@H]2COc3ccc(Br)cc3[C@@H]2N2C(=O)N(c3ccc(C(F)(F)F)cc3)C(=O)[C@]12C	-11	-0.3%	-11%	-14	15%	-2.9	-2%
Cc1ccc(CN2CCN(C(=O)C3CCCO3)CC2)cc1 (configuration not stated)	-21	-1.7%	1%	11	9%	-0.7	-7%
CC(=O)C1=C(N2CCCCC2)CCC1=O	-22	-12%	-9%	-15	15%	2.7	-43%[inhibitor]
CC1=C(C)CC(C(=O)NCc2ccc3c(c2)OCO3)C(C(=O)O)C1 (configuration not stated)	-3	0.0%	5%	14	-1%	1.1	0%
O=C(CN1C(=O)S/C(=C\c2ccccc2F)C1=O)Nc1ccccc1O	-1	0.4%	-5%	.	9%	?	?
CN(C)/C=N/c1nc2nccc(-c3cccnc3)n2n1	22	.	.	-8	0%	1.8	20%[15.4 µM]
CCOc1ccc(S(=O)(=O)N(CC)CC(=O)N2CCCC2)cc1C	0	-1.6%	1%	-1	-4%	0.4	1%[15.4 µM]
Nc1ccc(S(=O)(=O)Nc2nc(-c3ccccc3)cc(-c3ccccc3)n2)cc1	8	.	-25%	12	-3%	-0.3	-10%[15.4 µM]
Oc1cccc(/C=N/N2CCN(C3c4ccccc4-c4ccccc43)CC2)c1	.	.	-14%	-12	28%	2.3	18%[15.4 µM]
COc1ccc(C)cc1NC(=O)CN(c1ccccc1)S(C)(=O)=O	-16	5.1%	-10%	20	17%	2.4	-41%
O=C(CCNS(=O)(=O)c1ccc(Br)s1)NC1CCCC1	2	0.7%	9%	-2	2%	1.0	2%

Single values from the entries so far:
gsp agonist, CCOc1ccc(S(=O)(=O)N(CC)CC(=O)N2CCCC2)cc1C → 1%[15.4 µM]
gsp antagonist, CCOC(=O)[C@@H]1[C@H]2COc3ccc(Br)cc3[C@@H]2N2C(=O)N(c3ccc(C(F)(F)F)cc3)C(=O)[C@]12C → -11%
Sfp inh, CC(=O)C1=C(N2CCCCC2)CCC1=O → 15%
TRPML1 inh, Cc1ccc(CN2CCN(C(=O)C3CCCO3)CC2)cc1 (configuration not stated) → 11
Menin MLL FP FL, CN(C)/C=N/c1nc2nccc(-c3cccnc3)n2n1 → 1.8
Sfp inh, O=C(CN1C(=O)S/C(=C\c2ccccc2F)C1=O)Nc1ccccc1O → 9%

Next section
SMILES	TRPV1 PAM	ClpP mod	gsp antagonist	TRPML1 inh	Sfp inh	Menin MLL FP FL	gsp agonist
COc1ccc(-n2c(CCc3ccccc3)n[nH]c2=S)cc1	-6	-1.9%	-11%	3	-10%	3.1	-76%[inhibitor]
CCC(CO)Nc1ncc([N+](=O)[O-])cc1C#N (configuration not stated)	-4	-1.0%	6%	10	15%	5.0	5%
Cc1nnc(N=c2ssnc2Cl)o1	-11	-2.4%	-9%	9	.	.	.
COc1ccc(-c2nc(CS(=O)CC(=O)N3CCc4ccccc4C3)c(C)o2)cc1 (configuration not stated)	6	-27%	-8%	-4	-25%	-2.1	-40%[inhibitor]
CCOCCCNC(=O)c1cccc(OC2CCN(S(C)(=O)=O)CC2)c1	18	-1.5%	-7%	-1	7%	0.0	-16%
COc1ccccc1C(=O)C1CCCN(Cc2ccc(Oc3ncccn3)cc2)C1 (configuration not stated)	-6	.	0%	68	14%	0.6	-12%[15.4 µM]
Cc1cccc(CNc2ncnc3ccc(-c4ccoc4)cc23)c1	8	.	.	.	-11%	9.7	.
COc1cccc(-n2nnc3c(=O)n(CC(=O)NCC4CCCO4)cnc32)c1 (configuration not stated)	-12	-0.9%	21%	0	?	-1.8	11µM*
CC(=O)Nc1ccc(S(=O)(=O)NCCCN2CCN(Cc3ccccc3)CC2)cc1Cl	?	1.4%	2%	-29	-11%	-1.0	-33%[15.4 µM]
CCOC(=O)C(Sc1nnc(-c2ccncc2)o1)C(C)=O (configuration not stated)	11	0.8%	-4%	-2	-1%	5.7	-1%
COc1ccc(NC2CCCN(C(=O)CN3CCOC3=O)C2)cc1OC (configuration not stated)	-6	0.1%	6%	0	-3%	.	?
Cc1cccc(NC(=O)CCS(=O)(=O)c2ccc3c(c2)NC(=O)CS3)n1	-1	-3.2%	12%	-10	11%	.	?
Cc1ccc(C)c(SCC(=O)N(C)C2CCS(=O)(=O)C2)c1 (configuration not stated)	.	-2.7%	4%	15	.	.	-50%[inhibitor]
O=c1oc2ccccc2c(Nc2cccc(O)c2)c1[N+](=O)[O-]	3	0.2%	29%	-4	13%	0.3	-32%[inhibitor]
O=c1[nH]cnc2c1ncn2Cc1ccc([N+](=O)[O-])cc1	9	-2.0%	-3%	-5	-8%	-15	27%
Cc1cccc(-n2ncc3c(NNC(=O)c4ccco4)ncnc32)c1	4	-9.5%	-13%	9	6%	3.3	16%
CCOc1ccc(NC(=O)CN(C)C(=O)c2ccccc2SCc2c(C)noc2C)cc1OCC	25	-0.4%	-2%	-3	.	.	-2%[15.4 µM]
CC(/C=N/Nc1nncc(=O)[nH]1)=C\c1ccccc1	0	-2.3%	-3%	-8	5%	-1.0	18%[15.4 µM]
COc1ccc(-c2cc(C(=O)NN3CCOCC3)c3ccccc3n2)cc1OC	-2	-3.7%	-3%	8	15%	-0.5	-7%
CCOC(=O)[C@@H]1[C@H]2COc3ccccc3[C@H]2N2C(=O)N(c3cccc(C)c3)C(=O)[C@]12C	.	0.2%	-4%	21	.	.	-16%
COC(=O)C1CCCN1C(=O)c1cccs1 (configuration not stated)	9	-0.2%	7%	4	11%	6.0	-11%
CCCN1CCN(CCCNC(=O)c2cc3c(=O)[nH]c4ccc(C)cc4c3s2)CC1	9	.	5%	1	11%	5.6	3%[15.4 µM]
O=C(c1ccc(S(=O)(=O)N2CCCCCC2)cc1)N1CCN(c2ccccc2F)CC1	.	0.5%	11%	3	.	.	?
O=C(Nc1ccc(Cl)cc1)C1C2CCCCC21 (configuration not stated)	9	1.5%	-5%	-2	5%	-3.5	-1%
COc1cccc(NC(=O)N2CCCC2C(=O)NC23CC4CC(CC(C4)C2)C3)c1 (configuration not stated)	-26	-1.4%	-1%	-5	-5%	.	-3%[15.4 µM]
O=C(Nc1ccc(F)cc1)c1nc[nH]c1C(=O)Nc1ccc([N+](=O)[O-])cc1	4	.	7%	5	8%	6.2	1%
O=S(=O)(c1ccc(-c2ccon2)s1)N1CCCC1	-3	.	8%	-10	16%	3.9	6%
CC(Oc1ccccc1)C(=O)Nc1nnc(C2CCCCC2)s1 (configuration not stated)	-1	.	8%	7	-10%	-2.0	6%[15.4 µM]
O=C(CCCc1ccccc1)Nc1nncs1	24	1.4%	23%	18	-1%	0.5	6%
Nc1nc(N)c2nc(-c3ccccc3)c(N)nc2n1	-2	3.9%&4.8%	2%	-1	4%&20%&-7%&10%	-2.9	.
O=c1cc(-c2ccccc2)oc2cc(O)c(O)c(O)c12	.	0.9%&1.0%	-23%	.	28µM*!	2.5&70	.
Cc1nnc(NC(=O)C(C)Sc2nnc(-c3ccco3)n2C(C)C)s1 (configuration not stated)	-6	.	-3%	5	8%	5.2	-44%
Cn1c(C(=O)NCc2cccs2)cc2oc3ccccc3c21	-3	32µM*	-20%	-1	-7%	2.6	18%
NS(=O)(=O)c1ccc(NCc2cnc3ccccc3n2)cc1	.	0.9%	.	3	.	.	?
O=C(Nc1cccnc1)c1cc2nc(C3CC3)cc(C(F)(F)F)n2n1	3	-4.0%	2%[15.4 µM]	-22	27%	1.9	0%
O=C(NCc1ccc(F)cc1)c1cccnc1C(=O)O	7	-0.7%	10%	7	-14%	1.7	-15%[15.4 µM]

The last three compounds of the part above open the next one:
SMILES	TRPV1 PAM	ClpP mod	gsp antagonist	TRPML1 inh	Sfp inh	Menin MLL FP FL	gsp agonist
NS(=O)(=O)c1ccc(NCc2cnc3ccccc3n2)cc1	.	0.9%	.	3	.	.	?
O=C(Nc1cccnc1)c1cc2nc(C3CC3)cc(C(F)(F)F)n2n1	3	-4.0%	2%[15.4 µM]	-22	27%	1.9	0%
O=C(NCc1ccc(F)cc1)c1cccnc1C(=O)O	7	-0.7%	10%	7	-14%	1.7	-15%[15.4 µM]
CCC(C)N(C(=O)Cn1nnc(-c2ccc(F)cc2)n1)C1CCS(=O)(=O)C1 (configuration not stated)	-24	-1.5%	11%	-27	3%	.	-4%
CC1(C)CC(=O)C(N=Nc2ccc(S(=O)(=O)N3CCCCCC3)cc2)=C(O)C1	4	-0.2%	1%	26	12%	7.4	-6%
O=C(O)Cc1ccc(NC(=O)C(c2ccccc2)c2ccccc2)cc1	-3	.	2%	-6	1%	-3.4	15%[15.4 µM]
Cc1ccc(NC(=O)COC(=O)c2ccc3c(c2)OCO3)cc1S(=O)(=O)N1CCCCC1	0	-19%	-6%	21	4%	3.4	22%
CC(C)C(OC(=O)c1oc2ccccc2c1CSC1CCCCC1)C(=O)NC(N)=O (configuration not stated)	2	.	.	.	15%	-1.3	.
O=C1c2ccccc2C(=O)N1CCc1nn[nH]n1	-4	0.7%	-7%	-9	-1%	2.1	0%
